NPYLR7 ag: activates Aedes aegypti NPYLR7 receptor; HEK293T NPYLR7/Galpha15, GCaMP6s calcium fluorescence; activation, % at 10 µM; 270,000 compounds, 0.15% hits; in the data active = activation above about 40%;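 also: 0% = vehicle and 100% = reference agonist at the receptor; some compounds past the cut are filed as inactive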
NPYLR7 ag max-min: further read-out of NPYLR7 ag, marked with its call; activation, %; measured here: Max-Min RFU normalised activation; some inactives read as strong as hits;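 span of the calcium signal over five minutes; 0% = vehicle and 100% = native peptide agonist; compound fluorescence can raise it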
* = called active by the depositor; & = joins results of further samples.

Each structure is followed by: NPYLR7 ag max-min, NPYLR7 ag
- COC(=O)C(C)(Cc1ccccc1)CC(C)(CC1(C)CC(C)(C(=O)OC)OC1=O)C(=O)OC (centres undefined)
    -3, -1
- Cn1c(SCC(=O)Nc2ccc(F)cc2)nc2c(-c3ccccc3)c[nH]c2c1=O
    -3, -1
- COC(=O)c1sc(NS(=O)(=O)c2ccc(S(C)(=O)=O)c(F)c2)nc1C
    1, 5
- Cc1nnc(CNC(=O)CC2c3ccccc3CCc3ccccc32)o1
    4, 17
- c1ccc2sc(C3CCCCN3Cc3cscn3)nc2c1 (centres undefined)
    4, 3
- N#Cc1ccc(CN2CCN(S(=O)(=O)c3ccc(C#N)cc3)CC2)cc1
    -11, -8
- CN(C)CCCCN(C)C(=O)c1ccc(F)c(Br)c1
    2, 1
- CCc1cc2c(=O)c(-c3ccc4c(c3)OCCO4)c(CC)oc2cc1O
    -16, -5
- CSc1nccn1-c1ccc(C(=O)N2CCCC(CNS(C)(=O)=O)C2)cc1 (centres undefined)
    6, 6
- O=C(Cn1cc(OCc2ccccc2F)c(=O)cc1CO)N1CCc2ccccc21
    -1, 0
- CC1=CCC=CC1C(=O)N1CCC(n2c(Cc3ccccc3)nc3ccccc32)CC1 (centres undefined)
    0, 1
- Cc1cccc(NC(=O)c2ccccc2Cl)c1C(=O)N1CCCC1
    7, 5
- O=C(COCc1ccccc1)N1CCN(c2nc(-c3ccco3)nc3cc(Cl)ccc23)CC1
    5, -3
- N[C@H](Cc1c[nH]c2ccccc12)C(=O)NCc1cccnc1N1CCOCC1
    1, 5
- Cc1cc2n(CC(O)CN3CCC(C)CC3)c(=O)c3ccccc3n2n1 (centres undefined)
    -1, -2
- COCCOCC(=O)N1CCCN(Cc2cc(=O)c(OCc3ccc(C(F)(F)F)cc3)co2)CC1
    2, 0
- CO[C@@H](C(=O)N1CC(c2cccnc2)C1)c1ccccc1
    9, 16
- COc1ccc(C)cc1NC(=O)CSc1nc(=O)n(CCO)c2c1CCC2
    -15, -4
- COc1ccc2c(c1)CCN2C(=O)NC(c1ccccc1)C(C)(C)C (centres undefined)
    3, 4
- Cc1ccc(C(=O)CSc2nnc(-c3ccco3)n2C)c(C)c1
    15, -1

The listing continues:
Each structure is followed by: NPYLR7 ag max-min, NPYLR7 ag
- CCOC(=O)C1(CC2CCCCO2)CCN(S(=O)(=O)c2ccc(F)cc2Cl)CC1 (centres undefined)
    -1, 4
- CCc1ccccc1-c1cccc(-n2cnnc2)c1
    6, 8
- COc1nc(-c2cccc(C(F)(F)F)c2)n(-c2ccc(NC(=O)CCCCl)cc2)n1
    25, 15
- COc1ccc(CCN(C)S(=O)(=O)c2ccc(OC)c(N3CCN(S(=O)(=O)c4ccc(Br)cc4)CC3)c2)cc1OC
    12, 25
- CC1(C(=O)NS(=O)(=O)c2cccc(OC(F)F)c2)CCN1C(=O)Cc1cccc2ccccc12 (centres undefined)
    2, 5
- COc1cccc(C(O)c2ncc(-c3ccc(C(F)(F)F)cc3)[nH]2)c1 (centres undefined)
    2, 2
- Nc1cc(-c2ccc(Cl)c(Cl)c2)nn1-c1ccc(C(=O)NCCOc2ccccc2)cc1
    -7, 0
- CN(CCc1ccccn1)C(=O)c1cc(COc2ccccc2)[nH]n1
    2, 1
- Cc1cc(O)c(C(c2ccncc2)N2CCC(Cc3ccccc3)CC2)c(=O)n1Cc1ccco1 (centres undefined)
    3, 5
- Nc1nc(-c2ccccc2Cl)co1
    -3, -2
- CN(C)c1cc(C(=O)NCc2ccc(Cl)s2)ccn1
    1, 2
- CCN(C(=O)c1cc(C)c(C)c(S(=O)(=O)N(C)C)c1)c1ccc(F)cc1
    -3, 2
- COc1ccccc1N1C(=O)/C(=C/c2ccc(-c3cc(Cl)ccc3Cl)o2)C=C1c1ccccc1
    7, 1
- COc1ccc(/C=C/CN2CCN(c3ncc(Cl)cn3)CC2)cc1
    0, 2
- CC(C)(C)c1ccc(C(=O)Nc2nc3c(s2)C(=O)CCC3)cc1
    3, 4
- CC(=O)c1cc(CN2CCCC2c2nc3ccc(C)cc3[nH]2)cs1 (centres undefined)
    -1, 1
- O=C(COc1ccc(Cl)cc1)N1CCN(c2ccc3nnc(-c4ccco4)n3n2)CC1
    -4, 0
- Cc1cccc(Nc2ncc3c(n2)CC(c2ccccc2O)CC3=O)c1 (centres undefined)
    -3, -1
- COc1ccccc1C(CNc1ncnc2c1cnn2C)N1CCCC1 (centres undefined)
    -2, -3
- O=C(NCCc1cccs1)Nc1cccc2[nH]c([C@@H]3O[C@H](CO)[C@@H](O)[C@H](O)[C@H]3O)nc12
    19, 15

Taken from the results shown (three entries):
Each structure is followed by: NPYLR7 ag max-min, NPYLR7 ag
- COc1ccccc1N1C(=O)/C(=C/c2ccc(-c3cc(Cl)ccc3Cl)o2)C=C1c1ccccc1
    7, 1
- COc1ccc(/C=C/CN2CCN(c3ncc(Cl)cn3)CC2)cc1
    0, 2
- CC(C)(C)c1ccc(C(=O)Nc2nc3c(s2)C(=O)CCC3)cc1
    3, 4

Retrieved by compound from the entries so far:
Each structure is followed by: NPYLR7 ag max-min, NPYLR7 ag
- CCN(C(=O)c1cc(C)c(C)c(S(=O)(=O)N(C)C)c1)c1ccc(F)cc1
    -3, 2
- COc1ccccc1N1C(=O)/C(=C/c2ccc(-c3cc(Cl)ccc3Cl)o2)C=C1c1ccccc1
    7, 1

Whole records, quoted from the list. Values in the order: NPYLR7 ag max-min	NPYLR7 ag
Record of `COc1ccccc1C(CNc1ncnc2c1cnn2C)N1CCCC1` (centres undefined) → -2	-3
Record of `CCN(C(=O)c1cc(C)c(C)c(S(=O)(=O)N(C)C)c1)c1ccc(F)cc1` → -3	2

More structures
Each structure is followed by: NPYLR7 ag max-min, NPYLR7 ag
- CCOC(=O)c1cc2c(nc1C)-c1cc(Cl)cc(Cl)c1OC2O (centres undefined)
    10&-7, 4&-6
- CC1CN(CC(=O)NCc2nc(-c3ccccc3)cs2)Cc2cc(Cl)ccc2O1 (centres undefined)
    1, 4
- COC(CNC1CCN(c2ccc3c(c2)OCO3)CC1)c1cccs1 (centres undefined)
    -3, -2
- Cc1cc(C(=O)CC#N)c(C)n1CC(F)(F)F
    -2, -1
- CC(CC(=O)NNc1nccc(C(F)(F)F)n1)n1ccnc1 (centres undefined)
    -1, 6
- O=C(N=Nc1c(O)[nH]c2ccc(Br)cc12)c1ccc2c(c1)OCO2
    11, 17
- CCC(C)N(Cc1cccnc1)C(=O)c1cc(-c2cnn(C)c2C)n[nH]1 (centres undefined)
    0, 6
- O=C(Cn1cc(-c2nnco2)ccc1=O)NCC1(c2ccccc2)CC1
    -4, -4
- Cn1nc(-c2cccs2)cc1C(=O)N1CCC(O)(c2ccccn2)CC1
    0, 2
- Cc1nc(-c2ccccc2)c(C(=O)NCCCc2csc(N)n2)s1
    0, 4
- O=c1c(O)c(-c2ccc(F)cc2)oc2ccc(CBr)cc12
    16, 14
- Fc1ccc(Cn2cccc2CN(Cc2cccc(C(F)(F)F)c2)C2CC2)cc1
    8, -3
- OCC1CCN(C2CCCN(Cc3ccccc3C#Cc3ccccc3)C2)CC1 (centres undefined)
    -6, -2
- CCOC(=O)c1c(NC(=O)C23CC4CC(CC(C4)C2)C3)sc(C(=O)N2CCCCC2)c1C
    24, 12
- CC(=O)c1cc(CCC(=O)NC(c2ccc(F)cc2)C(C)C)oc1C (centres undefined)
    2, 7
- Cc1nnc(NC(=O)CSc2nnc(CNC(=O)c3ccco3)n2-c2ccc(F)cc2)s1
    -10, -16
- O=C(NCc1ccc(N2CCCC2)cc1)c1ccc2c(c1)CCO2
    3, 5
- COc1cc(C)c(S(=O)(=O)NCC2(C(N)=O)CCOCC2)cc1OC
    8, 6
- Nc1cccc(-c2nc3ncccc3[nH]2)c1
    1, -3
- O=C(NC(C(=O)N1CCSCC1)c1ccccc1)c1ccccc1 (centres undefined)
    3, 6

The listing continues:
Each structure is followed by: NPYLR7 ag max-min, NPYLR7 ag
- Cc1cc2ncc(C(=O)N[C@@H](Cc3ccccc3)C(N)=O)c(C)n2n1
    1, 3
- Cc1ccc(NC(=O)c2nc(-c3cn(-c4ccc(F)cc4)nn3)no2)cc1C
    -11, -9
- COc1ccc2cc(CNC(=O)C3=COCCO3)ccc2c1
    -2, -1
- CC(CO)CN(Cc1ccccc1)C(=O)Cc1ccc(O)c(Cl)c1 (centres undefined)
    1, -1
- CCOCCCNC(=O)c1cc(NC(=O)Nc2cccc(CC)c2)ccc1N1CCCCC1
    7, 3
- Cc1ccc(-c2cc3c(=O)n(CC(=O)Nc4cccc(C(F)(F)F)c4)ncn3n2)cc1C
    -18, -9
- CCCCCNC(=O)c1nnn(-c2ccc(C)cc2)c1-c1cccnc1
    2, 0
- Cc1cnn(CCNC(C)CC(=O)Nc2ccccc2)c1 (centres undefined)
    7, 5
- Cn1ncc(I)c1C(=O)NCc1cc(C(C)(C)C)n[nH]1
    3, 7
- Brc1cc(CNC2C3CCCC2CN(C2CC2)C3)cs1 (centres undefined)
    -5&1, -5&6
- CCc1ccc(C2=Nn3c(nnc3C(F)(F)F)SC2)cc1
    1, 5
- C=CCOc1ccc(/C=C2/C(=O)NC(=O)N(CC=C)C2=O)cc1OCC
    3, 3
- CCCN(CC(=O)N1CCc2sccc2C1c1ccc(C(C)(C)C)cc1)C(=O)C(Cl)c1ccccc1 (centres undefined)
    -14, -11
- COc1ccccc1-n1c(SCc2nc(C(=O)O)cs2)nnc1-c1cccnc1
    1, 1
- COc1ccc(N2C=C3C(=O)c4ccccc4OC3SCC2=O)cc1 (centres undefined)
    -9, -6
- N#Cc1c(NC(=O)c2nn3c(C(F)(F)F)cc(-c4ccccc4)nc3c2Br)sc2c1CCCCC2
    -12, -8
- CCOC(=O)N1CCN(c2c(N3CCN(CC)CC3)c(=O)c2=O)CC1
    6, 3
- Cc1cc(C)cc(-c2nc3ccccn3c2NC(=O)CCCCl)c1
    1, -2
- Cc1cccc(CSc2nnc(CNC(=O)/C=C/c3ccccc3)n2-c2cc(Cl)ccc2Cl)c1
    23, 16
- Cc1c(C)n2c3c(=O)n(C)c(=O)n(C)c3nc2n1Cc1ccco1
    -5, 0

Other compounds:
Each structure is followed by: NPYLR7 ag max-min, NPYLR7 ag
- CCC(C)(C(=O)NC1CCCC1)N(CC1CCCO1)C(=O)c1cnccn1 (centres undefined)
    -1, 2
- CCN(CC)c1c(C)nc2ccc(C(=O)NCCN(C)C)cn12
    -6, -2
- CC(Oc1ccc(C#N)cc1)C(=O)NCCCCOc1ccccc1 (centres undefined)
    -2, 1
- CCNC(=O)[C@@H]1C[C@@H](N)CN1C(=O)c1nn(C)c2c1CCCC2
    7, -3
- Cc1nc(C)c(CC(=O)NC2CCCc3c2cnn3-c2ccc(C)c(C)c2)s1 (centres undefined)
    2, 14
- C=CCn1c2ccccc2c2nc3ccccc3nc21
    7, 10
- C=C1c2ccccc2C(=O)N1CC(=O)NC1(c2nc(C)cs2)CCC1
    4&-3, 4&-3
- Cc1cc(C)n(-c2cccc(C(=O)N3CCCC4(CCNC4)C3)c2)n1 (centres undefined)
    -1, 1
- Nc1c(N(CCC2=CCCCC2)C(=O)c2ccc(F)cc2F)c(=O)[nH]c(=O)n1Cc1ccccc1
    14, 15
- Cc1ccn2c(=O)nc(SCC(=O)NCc3ccc(F)cc3)nc2c1
    -1, 1
- NS(=O)(=O)c1cccc(NC(=S)NC2CCCCC2)c1
    3, 4
- COc1ccc(-c2n[nH]c(=S)o2)c(OC)c1
    13, -2
- COc1ccc(CC2CN(Cc3ccnc(C(C)C)n3)CCO2)cc1 (centres undefined)
    10, 10
- Cc1nc(SC(C)c2nc(C3CC3)no2)n(C2CCCCC2)c1C (centres undefined)
    -1, 1
- CC(=O)c1cc(C(=O)OCC(=O)Nc2cccc(C)c2)c2ccccn12
    -5, 6
- CC(=O)N1CCCN(C(=O)CC2C(=O)NCCN2CC2CCCCC2)CC1 (centres undefined)
    1&1, 6&3
- Cc1cc(C)c2c(C)nn(-c3ccccn3)c2n1
    -5, -4
- CCC(=O)Nc1cccc(OCC(=O)N2CCC(Oc3ccc(C)cc3)CC2)c1
    9, 12
- CCCSc1ncccc1C(=O)N[C@@H]1CCCc2ccccc21
    -10, -6
- Cc1cc(C)c(C(=O)CC2(C(F)(F)F)NCCN2)c(=O)[nH]1
    1, 4

Following part.
Each structure is followed by: NPYLR7 ag max-min, NPYLR7 ag
- CCc1nc(N(CCC(=O)NCc2ccco2)CCc2ccccc2)c2ccccc2n1
    14, 12
- CCc1nn(C(C)C(=O)NC(C)CC)c(=O)c2cc3occc3n12 (centres undefined)
    5, 9
- O=C(NCCc1cccc(Cl)c1)c1ccc2nc(-c3ccccc3)c(-c3ccccc3)nc2c1
    -17, -12
- COc1ccnc(N2CCN(C(=O)C3CCCc4cn[nH]c43)CC2)c1 (centres undefined)
    2&-23, 3&-20
- Cc1ncc(CN2CCCC(CNC(=O)c3cccc(C(F)(F)F)c3)C2)s1 (centres undefined)
    11, 11
- O[C@@H]1CN(Cc2ccc(-n3cncn3)cc2)CC[C@H]1c1ccc(F)cc1
    5, 7
- Cc1nc2scc(C)n2c(=O)c1NC(=O)c1ccccc1Cl
    2, 13
- O=C(C(Cl)=CNc1ccc(Br)cn1)C(F)(F)F
    0, 1
- CCCCN(C#N)c1nc(N2CCOCC2)nc(N2CCOCC2)n1
    1, -1
- CC(=O)c1c(C)[nH]c(C(=O)CN(C)CC(=O)N2CCOCC2)c1C
    17, 1
- Cc1cc(C(=O)NCc2ccc3c(c2)OCO3)ccc1NC(=O)c1ccco1
    15, 21
- CCOC(=O)c1nn(-c2ccccc2C)c(=O)cc1N1CCC(C(N)=O)CC1
    7, 11
- Cc1ncc2c(c1CNC(=O)/C=C/c1ccccc1)CCN(C(=O)c1ccc(N3CCCC3=O)cc1)C2
    1, 5

Bioassay records as filed in PubChem BioAssay.

A portion of the library, so the mix of outcomes need not match the whole.
